HepG2 viability: viability loss in HepG2 hepatoma cells – cell-based, ATP luminescence, cherry-pick, activator set 2, cytotoxicity control, dose response (AID 1053143) | HepG2 viability, CellTiter-Glo ATP luminescence, 72 h | activity change, negative = cytotoxicity, % at the top dose, mostly 26 µM; hits show AC50 in µM | actives 3.7% (n = 3,400);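 active = fitted AC50 at most twice the highest valid dose; inconclusive = flat fit between -30% and -70% or a poor fit; inactive = flat within 30% either way or opposite effect or AC50 beyond that limit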;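 also: 0 = neutral control and -100 = positive control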
* = called active by the depositor; ? = inconclusive; [ ] = remark or other dose. Only part of the results is shown, so the mix of outcomes need not match the whole.

Structure,HepG2 viability
CCCSc1nc2c(cnn2-c2ccccc2)c(=O)n1N,-24%
CCc1ccc(NC(=O)c2noc3c2CCc2ccccc2-3)cc1,5%
CCC(NC(=O)c1cncc(Br)c1)c1ccccc1 (stereo not given),-12%
Cc1ccc(-c2noc(-c3ccccc3F)n2)cc1,26µM*
Cc1ccc(C(=O)Nc2ccc3c(c2)ncn3C)cc1,-18%
Cc1cc(C)nc(Nc2n[nH]c(-c3ccc(N)cc3)n2)n1,-11%
CC(CC(=O)O)CC(=O)Nc1cc(C(F)(F)F)cc(C(F)(F)F)c1 (stereo not given),-4%
Clc1ccc(-c2cn3c(n2)SCC3)cc1,-3%
CCn1c(C(C)NC(C)=O)nc2ccccc21 (stereo not given),-16%
O=C(Nc1ccccc1N1CCOCC1)c1ccc2ccccc2n1,-15%
NC(=O)c1c(NC(=O)c2ccccc2)sc2c1CCC2,1%
c1ccc(Nc2nnc(-c3cccc4ccccc34)o2)cc1,-13%
Cc1oc(C(=O)O)cc1COc1ccccc1Cl,-11%
Cc1ccccc1Nc1c(-c2ccc(N3CCOCC3)cc2)nc2cnccn12,6%
COc1ccccc1C(=O)Nc1ccc2c(C)cc(=O)oc2c1,8%
CN(N=Nc1ccccc1C(=O)O)C1CCCCC1,-13%
C=CCn1cc(/C=N/Nc2nc3ccccc3[nH]2)c2ccccc21,-44%
O=C(Nc1ccc(F)cc1)c1cc(-c2ccccc2)no1,-3%
O=C(c1cc2cc(F)ccc2[nH]1)N1CCc2ccccc21,-5%
c1ccc2nc(SCc3cn4ccccc4n3)cnc2c1,6%[12 µM]
CC1CCCCN1C(=O)c1cc(-c2ccc3c(c2)OCO3)on1 (stereo not given),10%
Cc1cc(C(=O)Nc2ccc3ccccc3c2)c(C)o1,-6%
COc1ccc2c(c1)O/C(=C\c1ccccc1O)C2=O,-4%
Cc1ccc(-n2c(O)c(C=NCc3ccccn3)c3ccccc3c2=O)cc1,3%
O=C(NN1C(=O)C2C3c4ccccc4C(c4ccccc43)C2C1=O)C1CC1 (stereo not given),-6%
COc1ccccc1-c1nc(-c2ccncc2)no1,2%
CCc1cc(C(=O)Cc2nc3ccccc3[nH]2)c(O)cc1O,-7%
O=c1[nH]c(/C=C/c2ccc(Br)cc2)nc2ccccc12,-13%[12 µM]
C=CCn1c(SCC(N)=O)nc2scc(-c3ccc(C)o3)c2c1=O,-11%
Fc1ccc(N2C(=S)SC(=Nc3ccccc3)C2=Nc2ccccc2)cc1,7%
COc1ccc(-c2noc(-c3cccs3)n2)cc1OC,-6%
O=c1c2sc(-c3ccccc3)cc2nc2n1CCCCC2,-12%
COc1ccc(Cn2c(/C=C/c3ccccc3)nc3ccccc32)cc1,-29%
COc1ccc(C(=O)c2c[nH]c(C(=O)NCCCn3ccnc3)c2)cc1,0%
COC(=O)c1sc(-c2ccc(C(C)(C)C)cc2)cc1NC(=O)/C=C/C(=O)O,23µM*
O=C(CSc1nc2ccccc2c(=O)n1NC(=O)c1ccccc1)c1ccc(Cl)cc1,-12%
O=C(Nc1cc(-c2ccccc2)[nH]n1)c1ccc(Cl)cc1,-13%
CC1=NN(c2ccccc2)C(=O)C1N=Nc1ccccc1 (stereo not given),31%
CCOc1ccc(NC(=O)Cc2ccccc2)cc1,-20%
Cc1cnc(NC(=O)c2sc(Nc3ccccc3)nc2N)o1,21%
Cc1sc(NC(=O)c2cccs2)nc1-c1ccccc1,-30%
COc1ccc(-c2nnc(SCC(=O)Nc3cccc(Cl)c3)o2)cc1,-4%
O=C(Nc1ccc(NC(=O)C2CC2)cn1)c1ccccc1Cl,-12%
CCc1cc2c(=O)c(-c3ccc4c(c3)OCCO4)coc2cc1OC(=O)c1ccco1,-13%
Clc1nc(Nc2ccccc2)nc(Nc2ccccc2)n1,-10%
COc1ccc(/C=C/c2cc(O)cc(O[C@@H]3O[C@H](CO)[C@@H](O)[C@H](O)[C@H]3O)c2)cc1O,1%
Cc1ccc(C(=O)OCC(=O)c2ccccc2)cc1,3%
c1coc(CNc2nc3ccccc3s2)c1,-18%
COc1ccc2sc(NC(C)=O)nc2c1,4%
Cc1onc(-c2ccccc2Cl)c1C(=O)N1CCN(c2nc3ccccc3s2)CC1,-21%

The results go on.
Structure,HepG2 viability
Cc1c(/C=C/C(=O)c2ccc(Cl)s2)cnn1C,7%
CC(=O)Nc1cccc(-c2csc(Nc3ncccn3)n2)c1,4%
COc1cccc(/C=C/C(=O)NNC(=O)c2ccccc2)c1OC,-12%
CN(C(=O)CSc1ncnc2sccc12)C1CCCCC1,-3%
NC(=O)c1cc(Cl)ccc1OCC(=O)Nc1ccc2c(c1)OCO2,-20%
CCOC(=O)c1ccc(NC(=O)N2CCCCCC2)cc1,10%
COC(=O)CSC(C(=O)Nc1ccc(C)c(C)c1)c1ccccc1 (stereo not given),-18%
Cc1nc(-c2ccc(NC(=O)CC(C)C)cc2)cs1,-12%
COc1ccc2cc(-c3ccccc3F)ncc2c1,-13%
O=C(/C=C/c1ccco1)Nc1ccc2c(c1)OCO2,-15%
COc1ccc(CCC(=O)Nc2nnc(C)s2)cc1,-5%
O=C(Nc1nc2cc3c(cc2s1)OCCO3)c1cccs1,26µM*
CCN1CCN(C(=O)c2cc(COc3ccc(C(C)=O)cc3OC)on2)CC1,2%
Cc1sc2ncnc(N3CCC(C(=O)Nc4nc5ccc(Cl)cc5s4)CC3)c2c1C,-12%[12 µM]
Cn1cccc1C(=O)OCc1csc(-c2ccccc2)n1,-13%
O=C(CSc1nnc(-c2ccc(O)cc2)o1)Nc1ccccc1,-18%
Cc1nc(-c2cc(-c3ccc(Cl)cc3)no2)cs1,-12%
COc1cccc2cc(-c3nc4ccccc4o3)c(=O)oc12,-3%
Nc1ccc2c(c1)C(=O)c1ccccc1C2=O,-10%
C=CCSc1nnc(-c2sc(-c3ccccc3)nc2C)n1C,-11%
COc1ccc(CCNC(=O)C(=O)NCc2ccccn2)cc1,-18%
O=C(Nc1ccc(Cl)cc1)c1ccco1,-7%
Cc1cc(C(=O)Cn2nnc3ccccc3c2=O)c(C)n1Cc1cccs1,56%
N/C(=N\OC(=O)c1ccco1)c1ccccc1,3%
C(=C\c1ccccc1)/CSc1ccccn1,4%
CSc1ccccc1OCc1cc(C(=O)N(C)Cc2ccc3nsnc3c2)no1,-10%
CC(C)c1ccc(-n2nc3ccc(N)cc3n2)cc1,-18%
CCOC(=O)C1CCCN(C(=O)CCc2nnc(-c3ccc(C(C)=O)s3)o2)C1 (stereo not given),7%
Cn1cccc1C(=O)OCC(=O)N1CCc2ccccc21,-5%
CCCCNC(=O)C1CC(c2cccc(F)c2)=NO1 (stereo not given),8%
Cc1ccc(NC(=O)CN(C)CC(=O)NC2CCCc3ccccc32)cc1 (stereo not given),3%[12 µM]
CCN(CC)S(=O)(=O)c1ccc(NS(=O)(=O)c2cccc(C)c2)cc1,-18%
Brc1ccc(/C=N/Nc2nc3ccccc3o2)cc1,-3%
O=[N+]([O-])c1ccccc1COc1ccc(Cl)c2cccnc12,-22%
O=C(Nc1nc(COc2ccccc2)cs1)C1CCC1,-17%
CC(C)NC(=O)c1cc(-c2cccs2)on1,-18%
Cc1ccc(OCCn2cnc3ccccc3c2=O)c([N+](=O)[O-])c1,-2%
Cc1cc(NCCN2CCOCC2)c2ccc3ccccc3c2n1,-14%[12 µM]
CCc1ccccc1NC(=O)CSc1nnc([C@@H](NC(=O)OC(C)(C)C)C(C)CC)o1 (stereo not given in full),-5%
O=C(CCCCC(=O)Nc1ccc(F)cc1F)Nc1ccc(F)cc1F,-13%
C(=NN1CCCCCC1)c1ccc2c(c1)OCO2,-11%
COc1ccc(C(=O)Nc2nnc(SCC(=O)Nc3ccc(NC(C)=O)cc3)s2)c(OC)c1,-8%
O=C(NCCO)c1ccc2c3n(nc2c1)-c1ccccc1CO3,-34%
Cc1noc(C)c1C(=O)OCC(=O)c1cc(C)n(Cc2ccccc2Cl)c1C,-7%
CSc1ccc(/C=N/N2CCN(C)CC2)cc1,-2%
Cc1ccc2c(C)c(C(=O)Nc3ccc(S(N)(=O)=O)cc3)oc2c1C,-2%
CN(C)c1ccc(/C=N/NC(=O)c2ccco2)cc1,-20%
Cc1cccc(NC(=O)c2ccc3c(=O)n4c(nc3c2)CCCCC4)n1,-16%
O=C(/C=C/c1ccco1)NCCc1ccccc1,21%
Cc1csc(NC(=O)c2cc(C)on2)n1,-16%

New compounds follow:
SMILES	HepG2 viability
CN(C)S(=O)(=O)c1cccc(C(=O)N=C2N=C3C=CC(Cl)=CN3Cc3ccccc32)c1	4%
Cc1nn(-c2nc3ccccc3[nH]2)c(N)c1-c1ccccc1	-25%
Cc1nn(-c2ccccc2)c(/N=C/c2ccccc2O)c1-c1ccccc1	2%
O=C(NCCCn1ccnc1)c1cc(-c2ccccc2)on1	?
CCOc1ccc(-c2nnc(SCC(=O)N3CCNC3=O)o2)cc1	-21%
Fc1ccccc1C1CCN(Cc2nc(CC3CC3)no2)C1 (stereo not given)	-6%
COc1ccc(-c2cc3ccc(O)cc3oc2=O)cc1	-14%
O=C(/C=C/c1ccco1)Nc1cccnc1	-4%
O=C(c1cc(-c2cccc(O)c2)on1)N1CCOCC1	19%
COc1ccc(C2=NN(C(=O)c3ccccc3C(=O)O)C(c3ccccc3O)C2)cc1 (stereo not given)	3%
Cc1cc(C)c2c(N)c(C(=O)N/N=C/c3cccs3)sc2n1	-5%
CCOc1ncccc1C(=O)OCC(=O)c1cc(C)n(Cc2ccco2)c1C	11%
Cc1cc(C(=O)COC(=O)c2cccc(S(=O)(=O)N(C)C)c2)c(C)n1CC1CCCO1 (stereo not given)	-5%
COc1cc2c(cc1OC)-c1cc(Nc3ccccc3)nc(=O)n1CC2	-1%
CCc1nc2oc3ccccc3c(=O)c2c(=O)n1-c1ccc(C)cc1	10%[12 µM]
Cc1ccccc1/C=C1\CCCc2ccccc2C1=O	-17%
O=C(CNc1cccc(F)c1)N1CCc2ccccc2C1	-11%
O=C(Nc1ncccc1O)c1ccc(Oc2ccccc2)cc1	26µM*
CC(C)Cc1nnc(NC(=O)Nc2ccccc2)s1	-25%
C(=N\Nc1nc2ccccc2[nH]1)/c1cccs1	2%
O=c1c2ccccc2nc(SCc2nc3ccccc3s2)n1CCCO	-7%[12 µM]
O=C(Nc1nc(-c2ccccc2)cs1)c1ccco1	5%[12 µM]
COc1ccc(OC)c2nc(-c3ccc4c(c3)OCO4)ccc12	-3%
CCCc1cc(C(=O)Nc2ccc(C)cc2)no1	-17%
O=C(NCc1cccnc1)C(=O)Nc1nc2ccccc2s1	-5%
CCOc1ccc(C(=O)CSc2nnc(N)s2)cc1	-10%
Cc1cc(C(=O)Nc2cc(C(C)(C)C)on2)c(C)o1	-23%
COc1cccc2nc3cc(C)c(C)cc3nc12	-12%
Nc1c(-c2ccc(Cl)cc2)nnn1-c1ccccc1	-13%
Cc1noc(N)c1C(=O)Nc1ccc(C(C)(C)C)cc1	-22%
CCOC(=O)/C(=C/c1ccc(OC(=O)c2ccncc2)cc1)C(C)=O	30%
CN(C)S(=O)(=O)c1ccc2c(c1)/C(=C/c1cc3c([nH]1)CCCC3)C(=O)N2	2%[6 µM]
O=C(CCCC(=O)c1ccc(F)cc1)c1ccc(F)cc1	-1%
Cc1c(C(=O)OC2CCC(C)CC2)[nH]c2c1C(=O)CCC2 (stereo not given)	-8%
Cc1cc(NC(=O)c2ccccc2)sc1C	-42%
CC(C)C(=O)Nc1ccc(NC(=O)c2cc3ccccc3o2)cc1	-10%
CSc1ccc(C(=O)/C=C/c2ccc(N)cc2)cc1	-16%
O=C(CCc1ccccc1)Nc1ccc(NC(=O)c2ccco2)nc1	7%
Cc1cc(OCc2cc(C(=O)N3CCCCCC3)no2)cc(C)c1Cl	-17%
CCOc1ccc(-c2nnn(CC(=O)Nc3cccc(OC)c3)n2)cc1OCC	-17%
COc1ccc(/C=C/C2=Nc3ccccc3NC(C)(C)C2)cc1OC	-4%
Oc1[nH]c(=S)sc1C=C1N=c2ccccc2=N1	-20%
CN1CCC(=O)N([C@H](CSc2ccc(Br)cc2)c2ccccc2)CC1	-3%
Cc1ccccc1Nc1nc(N)nc(-c2oc3ccccc3c2C)n1	-2%
CN(CC(=O)Nc1ccc(F)cc1)C(=O)CSc1nnc(Cc2ccccc2)o1	1%
COc1ccc2nc(NC(=O)c3ccccc3O)sc2c1	-7%
Fc1ccccc1Cn1nnc(-c2ccc3c(c2)OCO3)n1	-27%
Cc1ccccc1/C=N/NC(=O)c1sccc1C	-9%
Cn1c(-c2ccc(F)c(F)c2)cc2onc(-c3ccccc3)c2c1=O	-10%

Bioassay records as filed in PubChem BioAssay.
